High-throughput results as filed in PubChem.
HPGD inh – HPGD (human) dehydrogenase inhibition; P15428; purified HPGD, NADH fluorescence kinetic, PGE2 substrate; Potency, µM, without a hit: top-dose activity change, negative = inhibition, hits mostly inhibitors; 150,000 tested, 4.3% active; AID 894; active = well fitted inhibition curve with a large enough effect (not every such curve was filed as active); inconclusive = small, poorly fitted or top-dose-only effect, or another doubt; inactive = no such curve, though single readings can be large or run the other way;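 also: top concentration of the series not given in the record; plate controls included wells without enzyme; inactives centre near -10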
Target sequence (P15428 whole entry, looked up): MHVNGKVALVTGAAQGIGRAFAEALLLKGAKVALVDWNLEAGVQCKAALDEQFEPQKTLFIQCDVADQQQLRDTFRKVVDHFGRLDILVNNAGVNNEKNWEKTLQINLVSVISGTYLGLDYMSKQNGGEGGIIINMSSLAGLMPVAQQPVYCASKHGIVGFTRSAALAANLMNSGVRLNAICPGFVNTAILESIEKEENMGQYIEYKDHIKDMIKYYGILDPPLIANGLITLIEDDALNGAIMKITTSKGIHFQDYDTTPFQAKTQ
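20 nM HPGD preincubated 15 min at room temperature with compound in 50 mM Tris-HCl pH 8, 0.01% Tween 20. Started with 1 mM NAD+ and 30 uM prostaglandin E2; NADH fluorescence (360/450 nm) read 5 times over 30-s intervals, last minus first.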
* = called active by the depositor; ? = inconclusive; & = joins results of further samples; [ ] = remark or other dose. % is scaled to controls: 0 for no effect and ±100 for the full control effect; potency is read from the fitted curve at half-maximal effect. This is a subset; rates above refer to the full screens.

cpd	canonical_smiles	HPGD inh
1	C=CCC1c2cccc(C(=O)O)c2C(=O)N1c1cccc(C)c1 (stereo unspecified)	-8%
2	COc1ccccc1NC(=O)CN(Cc1ccco1)C(=O)c1cccs1	-3%
3	C=CC1=C2C=C(C3CC3)N(CCCOC(C)C)C=C2C(=O)C(C)(OC(=O)c2ccco2)C1=O (stereo unspecified)	-7%
4	CCOc1ccccc1NC(=O)CN(c1ccc(C)cc1)S(=O)(=O)c1c(C)n[nH]c1C	-4%
5	O=C(Nc1ccccc1N1CCOCC1)C1CCN(S(=O)(=O)c2ccc(F)cc2)CC1	0%
6	Cc1cc(Nc2ccc3c(c2)OCCO3)n2nc(C)nc2n1	-10%
7	CCOC(=O)C1(C)Oc2ccccc2C(c2ccc(OC)cc2)=C1C(=O)OC (stereo unspecified)	-10%
8	CC(C)c1ccc(-c2cc(C(=O)NN3CCN(C)CC3)c3ccccc3n2)cc1	?
9	CCOc1cc(CNc2ccc(N3CCOCC3)cc2)cc(Br)c1OCC	-7%
10	COc1ccc2c(CC(=O)Nc3ccc(OC)c(NS(=O)(=O)c4ccc(F)cc4)c3)coc2c1	-16%
11	CCc1nnc(NC(=O)CSc2nnc(-c3c[nH]c4ccccc34)n2CCOC)s1	-12%
12	C[C@@H](CN(C)C)CN1c2ccccc2CCc2ccccc21	-4%
13	COc1ccc2c(C=Nc3c(C)n(C)n(-c4ccccc4)c3=O)c(O)n(Cc3ccco3)c(=O)c2c1	-14%&-14%
14	CCC1CSC(Nc2ccc(C(=O)/C=C/c3ccc(Oc4ccccc4)cc3)cc2)=N1 (stereo unspecified)	?
15	CN1C(=O)Cc2cc(S(=O)(=O)N3CCOCC3)ccc21	-9%
16	O=c1nc(-c2ccccc2)n(-c2ccccc2)c2ncccc12	-2%
17	CCOC(=O)C1CCN(C(=O)CCc2nc3ccccc3[nH]2)CC1	-8%
18	CCCc1nc2c(sc3nc4c(cc32)COC(C)(C)C4)c(=O)n1Cc1ccco1	?
19	CC(C)C(C(=O)Nc1ncn[nH]1)N1C(=O)c2ccccc2C1=O (stereo unspecified)	-1%
20	CCc1nnc(NC(=O)Cn2ccc(C(F)(F)F)n2)s1	-16%
21	CC(=O)N1CCc2cc(Br)cc(S(=O)(=O)NCc3ccccn3)c21	1%
22	O=C(/C=C/c1ccc([N+](=O)[O-])cc1)Nc1cccnc1	-24%
23	CC(C)CC(=O)NC(=S)Nc1cc(C(=O)O)ccc1Cl	-13%
24	CC1(C)NC(=O)N(CC(O)CN2CCOCC2)C1=O (stereo unspecified)	1%
25	CCOC(=O)C(C)Oc1cccc2c(=O)n(CC(=O)NCc3ccc4c(c3)OCO4)ccc12 (stereo unspecified)	45%[activator]
26	O=C(COC(=O)c1ccccc1Cc1ccccc1)Nc1ccc(SC(F)F)cc1	-19%
27	Cc1ccc2c(c1)nnn2C1CCN(CC(=O)NCCc2ccccc2)CC1	-9%
28	N#Cc1cccc(-c2nc3cnc(N4CCNCC4)nc3n(C3CC3)c2=O)c1	?
29	CCOc1ccc(-n2cc(C(=O)NC(C)C)c3cc(OC)c(OC)cc3c2=O)cc1	-15%
30	CCCn1c(=O)c(C(=O)Nc2nnc(CC)s2)c(O)c2ccccc21	-21%
31	O=C1N(CN2C(=O)C3(OCCO3)c3ccccc32)c2ccccc2C12OCCO2	-8%
32	Cc1c(C(=O)N2CCCCC2)sc(NC(=O)C2CC2)c1C#N	14µM*
33	Cn1c(SCC(=O)N2CCOCC2)nnc1-c1cnccn1	-4%
34	COC(=O)COc1ccc2oc(=O)cc(C)c2c1	-22%
35	CNc1ccc(Br)cc(C(=O)/C=C/c2cccc(OC)c2)c1=O	7.9µM*
36	CC(C)(C)c1ccc(OCC(=O)NCc2ccco2)c(Br)c1	-27%
37	O=C1C=C(c2ccc(Cl)cc2)C(=O)N1Nc1ccccc1	22µM*
38	COC(=O)Nc1ccc(C)cc1NC(=O)OC	?
39	COc1ccc(OC)c(/C=N/NC(=O)c2csc3ccccc23)c1	?
40	CCc1ccc(/C=C2\SC(=S)N(CCCC(=O)Nc3ccccn3)C2=O)cc1	-3%
41	CN(C)S(=O)(=O)c1cccc(NC(=O)COC(=O)c2ccc(Br)o2)c1	0%
42	c1ccc(N(c2ccccc2)c2nc(-n3ccnc3)nc(-n3ccnc3)n2)cc1	-11%
43	c1ccn2cc(CSc3nnc4ccccn34)nc2c1	-4%
44	COc1ccc(C2c3c(-c4cc(Cl)c(C)cc4O)n[nH]c3C(=O)N2Cc2cccnc2)cc1OC (stereo unspecified)	10%
45	O=C(N/N=C/c1ccc(OC(F)F)cc1)c1ccc(Br)cc1	-11%
46	Cc1ccc(C)c(NC(=O)Cn2nnc(C(=O)Nc3c(C)cccc3C)c2N)c1	0%
47	COCCCNCCOc1ccc(C)cc1[N+](=O)[O-]	0%
48	C/C(NC(=O)c1cccc(F)c1)=C1/C(=O)C[C@@H]2[C@H]1C2(C)C	-16%
49	CC1Cc2ccccc2N1C(=O)CO/N=C/c1ccccc1OC(F)F (stereo unspecified)	-18%
50	CCOC(=O)c1c(N)sc(C(=O)Nc2ccc3c(c2)OCO3)c1C	?

Arranged by molar mass (rising): part of the list above
cpd	canonical_smiles	HPGD inh
50	CCOC(=O)c1c(N)sc(C(=O)Nc2ccc3c(c2)OCO3)c1C	?
30	CCCn1c(=O)c(C(=O)Nc2nnc(CC)s2)c(O)c2ccccc21	-21%
27	Cc1ccc2c(c1)nnn2C1CCN(CC(=O)NCCc2ccccc2)CC1	-9%

Looked up above.
In HPGD inh, #17 reads -8%
In HPGD inh, #26 reads -19%
In HPGD inh, #7 reads -10%

Returning to the listing; the two compounds before the break are reprinted first.
cpd	canonical_smiles	HPGD inh
49	CC1Cc2ccccc2N1C(=O)CO/N=C/c1ccccc1OC(F)F (stereo unspecified)	-18%
50	CCOC(=O)c1c(N)sc(C(=O)Nc2ccc3c(c2)OCO3)c1C	?
51	COc1ccc(NS(=O)(=O)c2cccc(NC(=O)C34CCC(CC3)C4)c2)cc1	-10%
52	c1ccc(-n2c(-c3ccco3)nnc2N2CCOCC2)cc1	-4%
53	COc1ccc(N(CC(=O)NCC2CCCO2)S(=O)(=O)c2ccc(C)cc2)cc1OC (stereo unspecified)	-7%
54	CCC(C(=O)NCc1ccc(OC)cc1)n1nc(C)n2c(cc3occc32)c1=O (stereo unspecified)	-14%
55	Cn1cnc2c(N3CCCCC3)nccc21	-22%
56	Cc1cc(Cl)ccc1OCC(=O)Nc1nc(N)nc(N)n1	-7%
57	CC(C1CC2CCC1C2)n1c(COc2ccccc2F)nnc1SCC(N)=O (stereo unspecified)	-17%
58	Cc1[nH]n(-c2cccc3ccccc23)c(=O)c1/C=N/NC(=O)c1cccc([N+](=O)[O-])c1	-16%
59	CCc1nnc2sc(-c3cc(-c4ccccc4)nc4ccccc34)nn12	-27%
60	COc1ccc(S(=O)(=O)N2Cc3ccccc3CC2C(=O)O)cc1OC (stereo unspecified)	-8%
61	CCn1c(NCc2ccccc2Cl)nc2ccccc21	-14%
62	CCC(=O)Oc1ccc(/C(CC)=C(\CC)c2ccc(OC(=O)CC)cc2)cc1	-12%
63	CC(C)Sc1nnc(CNC(=O)C23CC4CC(CC(C4)C2)C3)n1Cc1ccccc1	-7%
64	Cc1cccc(-c2nc(CS(=O)CC(=O)N3CCc4ccccc4C3)c(C)o2)c1 (stereo unspecified)	?
65	COc1ccc(N2C(=O)c3ccc(C(=O)OC(C)C)cc3C2=O)cc1	5%
66	COc1ccc(C2=NOC(C(=O)N3CCOCC3)C2)cc1OC (stereo unspecified)	-6%
67	CN(C)C(=O)c1cc(Cl)ccc1Sc1cc(Cl)ccc1Cl	?
68	Cc1ccc(-c2nnn(CC(=O)N(c3ccccc3F)C(C(=O)NC3CCCC3)c3ccco3)n2)o1 (stereo unspecified)	-11%
69	Clc1ccc(C[n+]2csc3ccccc32)cc1	16µM*
70	CSc1ccc(N2CCN(CCCNC(=O)Nc3ccccc3F)CC2)cc1	-14%
71	CC1(C)Cc2c(C#N)c(NCc3ccco3)nc(-c3ccco3)c2CO1	?
72	O=C(NNS(=O)(=O)c1ccc2ccccc2c1)NC1CCCCC1	-4%
73	CC1CC(C)CN(C(=O)COc2ccc(-c3nnco3)cc2)C1 (stereo unspecified)	-17%
74	CC(=O)N(c1c(C)n(C)n(-c2ccccc2)c1=O)C1(C(=O)NC2CCCC2)CCCCC1	-4%
75	CCSc1nnc2c(n1)OC(C)(C)Nc1ccccc1-2	-15%

Values by screen from the entries so far:
HPGD inh, compounds 47–57, in order: 0%, -16%, -18%, ?, -10%, -4%, -7%, -14%, -22%, -7%, -17%

Carrying on.
cpd	canonical_smiles	HPGD inh
76	CCOC(=O)SC1=N/C(=C\c2ccc(N(C)C)cc2)C(=O)S1	-22%
77	O=C(NCc1ccccc1Cl)C1CCN(S(=O)(=O)N2CCC3(CC2)OCCO3)CC1	-3%
78	CCCCC1=CC2=C(c3ccco3)C(=O)C(C)(OC(=O)c3ccc(OC)cc3)C(=O)C2=CN1CCc1ccccn1 (stereo unspecified)	-4%
79	Nc1cccc(-n2nncc2-c2ccc(Cl)cc2)c1	-17%
80	Cc1nn2c(-c3cccc(NC(=O)CSc4nc5ccccc5o4)c3)nnc2c2ccccc12	?
81	Cc1ccccc1S(=O)(=O)Cc1ccc(C(=O)NCCN2CCCCC2C)o1 (stereo unspecified)	-1%
82	O=C(c1cnn2c(C(F)(F)F)cc(-c3cccs3)nc12)N1CCN(C(c2ccccc2)c2ccccc2)CC1	?
83	O=C(CN1CCOCC1)Nc1cccc(Cl)c1Cl	2%
84	COc1nccnc1NS(=O)(=O)c1ccc(NC(=S)NC(=O)/C=C/c2ccc(F)cc2)cc1	-12%
85	COC(=O)c1cccc(OCC(O)Cn2cnc3cc(C)c(C)cc32)c1 (stereo unspecified)	-17%
86	CC1CN(C(=O)N2c3ccccc3Sc3ccccc32)C(C)CC1=O (stereo unspecified)	-10%
87	CCN1CCCC1CNC(=O)c1csc2c1CCCC2 (stereo unspecified)	-4%
88	O=C(Nc1nnc(-c2cccs2)o1)c1cccc(Oc2ccccc2)c1	-24%
89	COc1ccc(OC)c(N(CC(=O)Nc2ccccc2)S(C)(=O)=O)c1	-6%
90	CC(=O)N(CCc1ccccc1C)Cc1cc2cc3c(cc2[nH]c1=O)OCO3	?
91	COc1ccc(CNc2nc3ccccc3n2Cc2ccc(Cl)cc2)cc1OC	-2%
92	O=C(CO/N=C/c1cccc([N+](=O)[O-])c1)NC1CCCCCC1	-29%
93	CC(=O)OCC(=O)[C@@]1(OC(C)=O)[C@@H](C)C[C@H]2[C@@H]3C[C@H](F)C4=CC(=O)C=C[C@]4(C)[C@@]3(F)[C@@H](O)C[C@@]21C	-9%
94	CCOC(=O)c1sc2nc(N3CCOCC3)c3c(c2c1N)CCN(C)C3	?
95	CCc1ccc(S(=O)(=O)NCCc2csc(-c3cccnc3)n2)s1	?
96	CCN(CC)S(=O)(=O)c1ccc(C(=O)NCc2ccc3c(c2)cc(C)n3C)cc1	-11%
97	COc1cc(C(=O)NCC(=O)OCC(=O)c2ccc[nH]2)cc(OC)c1OC	-24%
98	O=C(CSc1nnc(-c2cccs2)o1)OCc1ccccc1	?
99	CC#CCOC(=O)c1c(C)nc2sc3c(c2c1N)CCC(O)C3 (stereo unspecified)	-14%
100	Cc1sc(NC(=O)CSc2nnc(C)c(=O)[nH]2)c(C#N)c1C	-17%
101	CC(=O)Nc1ccc(C(=O)OCc2ccc(Br)cc2)cc1	-19%
102	O=C(CCCn1c(=O)[nH]c2ccsc2c1=O)N1CCN(Cc2ccc3c(c2)OCO3)CC1	-13%
103	COc1ccc(N2CCN(C(=O)c3ccc(NS(=O)(=O)c4cccc(F)c4)cc3)CC2)cc1	-14%
104	Cc1ccc(-c2nnc(C)c(N3CCOCC3)n2)cc1	-13%
105	CCCNC(=O)NC(=O)CSc1nc2cc(C(=O)OC)ccc2c(=O)n1-c1ccccc1	-27%
106	Cc1ccc(C(=O)NC(=S)NCC(=O)c2ccccc2)cc1	-12%
107	COC(=O)c1nn(-c2c(C)n(C)n(-c3ccccc3)c2=O)cc1O	-3%
108	CN(CC(=O)OCC(=O)NC(=O)c1cccn1C)S(=O)(=O)c1ccc(Cl)cc1	-11%
109	CCNS(=O)(=O)c1ccc(NC(=O)Cc2ccc(F)cc2)cc1	-13%
110	O=C(CCCOc1ccc(Cl)cc1)N1CCOCC1	-19%
111	COc1ccc(OCCNc2cc(Cl)ccc2[N+](=O)[O-])cc1	-17%
112	Cc1ccc(NC(=O)C2CCCN2S(=O)(=O)c2cccc3cccnc23)cc1F (stereo unspecified)	-10%
113	Cc1ccc(S(=O)(=O)N2CCN(C(=O)CN3CCN(C)CC3)C2)cc1	-9%
114	Cc1cc(NC(=O)NC(=O)c2cccc(OC(F)(F)C(F)F)c2)n[nH]1	-10%
115	CC(C)(C)NS(=O)(=O)c1ccc(NS(=O)(=O)Cc2ccccc2)cc1	-7%
116	Cc1nnc(SCC(=O)N2CCCc3ccccc32)[nH]c1=O	-8%
117	CCN1C(=O)/C(=C\c2ccc3c(c2)OCO3)C(C(=O)OC)=C1C	-16%
118	N#Cc1ccc(CSc2nnc(-c3ccncc3)n2CCc2ccccc2)cc1	-3%
119	CCOC(=O)c1cccc(NC(=O)C2CCCO2)c1 (stereo unspecified)	-16%
120	CC1(C)CCC[C@]2(C)C3CC(=O)O[C@@]3(C)CC[C@H]12 (stereo partly specified)	-1%
121	COc1ccc(NS(=O)(=O)c2ccc(NC(=S)NC(=O)/C=C/c3ccccc3)cc2)nn1	-15%
122	CC(C)OC(=O)c1cn(-c2ccccc2)nc1-c1ccc2c(c1)OCCO2	?
123	CC(C)(C)NC(=O)C(=O)NCCC1=CCCCC1	-4%
124	Cc1cccc(NC(=O)CC2NCCNC2=O)c1 (stereo unspecified)	0%
